GLA inh pH 4.5: inhibitors of human alpha-galactosidase A at pH 4.5; P06280; purified enzyme, 4-MU-alpha-Gal fluorescence, pH 4.5; activity change, negative = inhibition, % at 105 µM; 230,000 tested, under 10 active; inconclusive = small, poorly fitted or top-dose-only inhibition, or a rising curve; inactive = flat fitted curve, though single readings scatter; no compound was filed as active;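 further: 0% = full activity with enzyme and -100% = basal without enzyme; dose as in the result columns while the protocol names 77 µM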
Target sequence (P06280 whole entry, looked up): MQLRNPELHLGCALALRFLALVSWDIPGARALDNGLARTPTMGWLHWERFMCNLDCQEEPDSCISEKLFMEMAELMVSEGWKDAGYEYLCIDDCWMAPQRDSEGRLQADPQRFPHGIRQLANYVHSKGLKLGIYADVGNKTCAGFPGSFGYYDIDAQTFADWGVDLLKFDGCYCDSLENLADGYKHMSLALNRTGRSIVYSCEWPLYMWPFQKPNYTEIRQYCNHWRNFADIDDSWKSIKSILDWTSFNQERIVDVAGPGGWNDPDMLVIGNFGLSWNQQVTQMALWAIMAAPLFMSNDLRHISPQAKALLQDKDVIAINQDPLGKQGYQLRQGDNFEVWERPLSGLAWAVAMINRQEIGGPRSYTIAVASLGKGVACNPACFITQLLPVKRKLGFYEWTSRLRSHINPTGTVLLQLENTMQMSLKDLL
Rango dissoc inh: inhibition of RanGTP-driven Rango-importin beta dissociation. O95149+P62826. Biochemical FRET Rango-importin beta, RanGTP-induced dissociation. Potency, µM (titrated, usually from 46.1 µM), for inactives: at the highest dose activity change, negative = inhibition. 0.071% of 340,000 active; active means falling FRET ratio curve, often poorly fitted, with flat reads before Ran was added; inconclusive means other falling curves, or compound fluorescence or quenching; inactive means flat or rising ratio curve;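 further: potency means the concentration at half of the fitted maximal effect; % of control where 0% means no effect; nearly all actives have a fitted effect of over 45% in size; -100% = wells without RanGTP and RCC1; the record marks most hits as doubtful in a second field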
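Quantitative HTS using a FRET biosensor: 0.1 uM Rango, 0.25 uM importin beta, 0.6 uM Ran, 2 mM GTP, 0.2 uM RCC1 final, PBS with DTT, Tween-20 and BSA. Post-read taken 45 min after Ran addition.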
Rango-impB inh: inhibitors of Rango-importin beta complex formation | Potency, µM (doses to about 92.2 µM), inactives show at the highest dose inhibition of complex formation | Rango CFP/YFP FRET sensor + importin beta, 45 min | 0.031% of 340,000 active; active = rising FRET ratio curve, often small or poorly fitted; inconclusive = mostly compound fluorescence or quenching in the first reads; inactive = flat curves in all reads;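 further: potency means the concentration at half of the fitted maximal effect; 0% = DMSO wells and 100% = buffer wells lacking importin beta; nearly all actives have a fitted effect of over 15% in size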
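FRET biosensor Rango (snurportin 1 IBB between N-terminal EYFP and C-terminal Cerulean), 50 nM in PBS/1 mM DTT/0.02% Tween-20/0.1% BSA, preincubated 5 min RT with compound; 0.125 microM importin beta added, 45 min RT, CFP/YFP FRET ratio read.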
miR-21 reporter: miR-21 reporter, rising signal; HeLa miR-21 FLuc reporter, luciferase, 48 h; Potency, µM (series often up to 38.3 µM), without a hit: at the top dose reporter change, positive = more light; 340,000 tested, under 10 active; active = well fitted rising curve with a large enough effect; inconclusive = small, poorly fitted or top-dose-only effect; inactive = no such curve, though single readings can be large or run the other way;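 further: % of control where 0% means no effect; miR-21 action dims this reporter so a rising signal means less miR-21 action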
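HeLa cells stably expressing CMV-driven firefly luciferase with a downstream miR-21 binding sequence, endogenously expressing miR-21, were treated with titrations (up to about 40uM final) for 48 hours at 37 degree Celsius. Luciferase luminescence was read after lysis.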
* marks the source's active call; other numbers are inactive results; ? = inconclusive; nt = no result given; & = joins results of further samples; [ ] = remark or other dose. An excerpt; count on the stated rates, not on these rows.

No.	structure	miR-21 reporter	Rango dissoc inh	Rango-impB inh	GLA inh pH 4.5
1	O=[N+]([O-])c1ccc(S(=O)(=O)Nc2ccc(S(=O)(=O)N3CCCC3)cc2)cc1	-0.3%	?	-2.0%	nt
2	O=C(c1ccco1)N1N=C(c2ccc(Br)cc2)CC1c1ccco1 (stereo not given)	nt	5.6%	-3.5%	nt
3	O=C(c1cccc(-c2ccco2)c1)N1CCCC(N2CCN(c3ccc(F)cc3)CC2)C1 (stereo not given)	4.9%	?	?	nt
4	Cc1ccc(-n2ncc(N(C)C)c(Cl)c2=O)cc1	-4.8%	1.5%	2.1%	-5.6
5	C/C(=N\NC(=O)C1CCCC1)c1ccc(C(C)C)cc1	-29.7%	-1.5%	2.7%	nt
6	CSc1nnc(C(C)(C)C)c(=O)n1/N=C/c1ccccc1O	-8.9%	-2.4%	5.2%	-7.3
7	CC[C@@]12C(=O)N(c3cccc(Br)c3)C(=O)N1[C@H](c1cccc(C)c1)[C@@H]1C(=O)N(Cc3ccccc3)C(=O)[C@@H]12	nt	-11.0%	-0.2%	nt
8	COc1ccc(C(=O)NCCNc2nc3cc(C)c(C)cc3cc2C)cc1	-5.4%	20.6%	0.6%	nt
9	O=C(c1ccc(Cl)cc1)N1CCC(=O)N(C(CO)Cc2ccccc2)CC1 (stereo not given)	nt	1.2%	4.3%	nt
10	CS(=O)(=O)c1ccc(Cl)c(NC(=O)C2CCN(S(=O)(=O)c3cccs3)CC2)c1	nt	16.5%	1.0%	nt
11	COc1ccc(-c2noc(CNC(=O)c3ccc4c(c3)OCO4)n2)cc1OC	-5.5%	-2.3%	-2.3%	nt
12	Cc1ccccc1NC(=O)c1cc(S(=O)(=O)N2CCOCC2)ccc1F	-9.0%	22.3%	?	-7.3
13	CS(=O)(=O)N(CC(=O)NCc1cccnc1)Cc1ccc(Cl)cc1	-5.3%	3.3%	0.5%	1.1
14	Cc1nn(C)c(-c2n[nH]c(=S)n2Cc2ccco2)c1Cl	-6.1%	-14.6%	4.8%	5.7
15	Cc1ccc(S(=O)(=O)NCCCC(=O)C=[N+]=[N-])cc1	-1.2%	0.4%	-0.4%	4.2
16	COc1ccc(CN(CCC(c2ccc(F)cc2)C2CCOC(C)(C)C2)C(=O)c2ccco2)cc1 (stereo not given)	?	-3.2%	5.0%	nt
17	Cc1cccc(NC(=O)CCN2C(=O)C3C4CCC(C4)C3C2=O)c1C (stereo not given)	-2.0%	-5.5%	2.1%	0.3
18	COC(=O)C(Cc1ccccc1)NC(=O)CNS(=O)(=O)c1ccc(Br)cc1 (stereo not given)	-0.2%	2.0%	3.7%	4.7
19	CCN1C(=O)c2cccc3c(S(=O)(=O)N4CCC(C)CC4)ccc1c23	nt	?	?	nt
20	COc1cc(CNCCCN2CCOCC2)ccc1OCC(=O)Nc1cccc(C(F)(F)F)c1	-18.6%	6.4%	2.1%	8.5
21	COc1cccc(NC(=O)COC(=O)c2c(F)cccc2F)c1	-2.5%	-3.2%	0.5%	1.1
22	CC(NC(=O)CSc1cccc(C(F)(F)F)c1)c1ccccc1 (stereo not given)	-6.5%	13.4%	3.2%	9.4
23	Cc1cccc(N(Cc2ccccc2)C(=O)c2ccc(CS(C)(=O)=O)cc2)c1	-1.6%	-0.1%	-3.3%	nt
24	COCC(C)NC(=O)CSc1nc2nn(-c3ccccc3)c(=O)c-2c2n1CCCCC2 (stereo not given)	0.0%	4.7%	4.7%	1.4
25	COc1ccc(-c2nnn(CC(=O)N(CCCN3CCOCC3)C(C(=O)NC3CCCC3)c3ccco3)n2)cc1 (stereo not given)	-1.3%	9.2%	0.0%	-0.1
26	O=C(NCc1ccc2c(c1)OCO2)c1cccs1	-11.6%	-11.1%	?	7.3
27	CCn1c(O)c2ccc(C(=O)N=NC(=O)c3ccccc3)cc2c1O	1.2%	27.6%	-0.4%	nt
28	Cc1cc(N2C(=O)C(O)=C(C(=O)c3cccs3)C2c2ccc(F)cc2)no1 (stereo not given)	-4.5%	-12.7%	?	-19.9
29	C[C@]12C=CC(=O)C=C1CC[C@@H]1C2[C@@H](O)C[C@@]2(C)C1CC[C@]2(O)C(=O)COC(=O)CCC(=O)O (stereo not given in full)	-30.6%	-0.8%	-0.4%	nt
30	CCc1ccccc1N(CC)C(=O)c1cn(CC)c(=O)c2cc(OC)c(OC)cc12	-3.9%	-1.6%	0.8%	-15.5
31	CCOc1ccccc1NC(=O)[C@@H](NC(=O)c1ccccc1F)C(C)C	3.6%	-0.9%	3.3%	nt
32	COc1cc2c(cc1OC)CN(C(=O)CCC(=O)c1ccc(F)cc1)CC2	nt	4.1%	-3.2%	nt
33	COc1cc(/C=C/C(=O)O)ccc1OCc1cnc(Cl)s1	-1.1%	2.8%	1.8%	-7.3
34	O=C(CSc1nnc2ccc(-c3ccncc3)nn12)N1CCCCC1	-3.1%	21.2%	0.0%	-4.2
35	COC(=O)c1cccc(C(=O)N2CCC(CCC(=O)NCc3ccc(F)cc3)CC2)c1	0.5%	0.2%	-0.8%	nt
36	CCOC(=O)C1C(=O)NC(c2ccccc2)=NC1c1ccc(OC)cc1 (stereo not given)	-12.3%	-7.0%	3.8%	8.7
37	O=C(O)c1ccccc1Cc1ccc2c(c1)CCCC2	nt	5.7%	2.9%	nt
38	O=C(CNC(=O)c1ccncc1)N/N=C/c1ccccn1	-0.7%	-7.7%	-0.3%	2.6[21.1 µM]
39	Cn1cccc/c1=N\c1cccc[n+]1C	7.9%	0.7%	-1.7%	-10.9
40	Cn1c2ccccc2c2nnc(SCC(=O)Nc3cccc(C(=O)O)c3)nc21	-4.9%	1.2%	3.2%	nt
41	CCOC(=O)c1sc(NC(=O)CSc2nnc(Cc3ccccc3)o2)c(C(=O)OCC)c1C	-9.5%	-0.9%	-0.6%	-7.0
42	COCc1nnc(NC(=O)CCc2ccc(OC)cc2)s1	-0.7%	-11.1%	-2.1%	nt
43	CCCCNC(=O)n1c(=O)oc2ccc(Cl)cc21	-5.8%	-13.7%	2.8%	-2.6
44	Cc1ccc(S(=O)(=O)NCC(=O)N(CC(=O)NCc2ccccc2)CC2CCCO2)cc1 (stereo not given)	0.9%	2.0%	-5.4%	5.0
45	O=C(CC1CCCCC1)Nc1ncn[nH]1	-1.3%	-5.5%	-0.2%	-9.1
46	Cc1ccc(-c2nnc(-c3ccccc3Br)o2)cc1	-34.5%	-6.2%	5.6%	nt
47	O=c1nc2ccccc2c2n1CC(CN1CCN(c3cccc(Cl)c3)CC1)N2 (stereo not given)	-0.8%	-14.2%	?	4.3
48	CCCCCOc1ccccc1C(=O)NCCCC(=O)O	-1.6%	-3.1%	1.3%	8.8
49	CC(C)Nc1nc(NC(C)C)nc(Oc2ccc(/C=N/O)cc2)n1	1.0%	-0.6%	2.7%	-5.2
50	CC(C)(C)OC(=O)C[C@@H]1C/C=C\C[C@@H](CC(=O)N(CCO)Cc2ccccc2)C(=O)N[C@H](Cc2c[nH]c3ccccc23)COC1=O	nt	12.3%	0.3%	nt
51	Cc1cccc(N2CC(C(=O)Nc3nccs3)CC2=O)c1C (stereo not given)	4.0%	-0.3%	-0.6%	nt
52	O=CN/C=C/c1cccc(O)c1	nt	0.3%	-0.3%	nt
53	C=C(C)c1nc2cc(OC)c(OC)cc2c(=O)o1	-2.7%	-1.3%	-1.5%	nt
54	COc1ccc(N(CC(C)C)S(=O)(=O)c2nnc(NC(=O)c3ccco3)s2)cc1	5.2%&0.3%	-2.0%	-2.8%	nt
55	Cc1ccc(C(=O)Nc2ccnc(-c3ccncc3)n2)cc1	3.7%	14.2%	-0.7%	-1.1
56	CCCC1(c2ccccc2)NC(=O)N(CC(=O)Nc2cc(C)ccc2OC)C1=O (stereo not given)	-0.1%	-4.3%	-1.3%	nt
57	CC(=O)NC(CCS(C)(=O)=O)C(=O)Nc1cccc2ccccc12 (stereo not given)	0.7%	-2.3%	-1.1%	-2.7
58	COc1ccc(C=CC(=O)c2c(OC)cc(OC)c(OC)c2O)cc1	nt	-0.5%	0.8%	nt
59	CC(C)(C)NC(=O)C[C@H]1C[C@H](C(=O)N2CCOCC2)[C@@]2(CCC3CCCC3)c3[nH]c4ccc(Cl)cc4c3CCN2C1=O	nt	0.9%	-4.2%	nt
60	C=CCn1c(SCC(=O)NC2CCS(=O)(=O)C2)nnc1-c1ccc(Cl)cc1 (stereo not given)	nt	-14.8%	3.5%	nt

Random excerpt: two compounds from above, in no set order.
No.	structure	miR-21 reporter	Rango dissoc inh	Rango-impB inh	GLA inh pH 4.5
56	CCCC1(c2ccccc2)NC(=O)N(CC(=O)Nc2cc(C)ccc2OC)C1=O (stereo not given)	-0.1%	-4.3%	-1.3%	nt
58	COc1ccc(C=CC(=O)c2c(OC)cc(OC)c(OC)c2O)cc1	nt	-0.5%	0.8%	nt

More records
No.	structure	miR-21 reporter	Rango dissoc inh	Rango-impB inh	GLA inh pH 4.5
61	O=C(N/N=C/c1ccoc1)c1ccccc1O	16.3%	-1.0%	-1.0%	nt
62	CC(C)(C)OC(=O)N1CCCN(C(=O)Nc2cccc(Cl)c2)CC1	-3.0%	15.6%	5.3%	7.6
63	CCc1nnc(NS(=O)(=O)c2ccc(N=CC3=C(O)CC(C)(C)CC3=O)cc2)s1	-1.3%	4.7%	-1.9%	1.3
64	CN1C(=O)/C(=C/C=C2\SCCN2C)SC1=S	-61.3%	nt	nt	-9.4
65	C/C(CC(=O)Nc1ccc(N(C)C)cc1)=N\NC(=O)c1ccc([N+](=O)[O-])cc1	1.1%	1.7%	-2.4%	nt
66	Cc1ccc2c(c1)C1CC(C)(O2)N(c2cccc(C(=O)N3CCN(c4ccccn4)CC3)c2)C(=O)N1 (stereo not given)	5.4%	-6.9%	-1.6%	nt
67	CCOC(=O)C(NC(=O)c1ccccc1)(OCc1ccc(F)cc1)C(F)(F)F (stereo not given)	-1.9%	-3.4%	2.5%	-5.4
68	Cc1cccc(C(=O)NC2CCN(CC(=O)N3CCOCC3)CC2)c1	-1.6%	-11.1%	-2.4%	15.1
69	O=C(Nc1ccccc1N1CCN(c2ccccc2)CC1)c1cccc(F)c1	-1.3%	0.1%	-1.2%	-1.3
70	COc1ccc(C)cc1NC(=O)CO/N=C(\N)CC(=O)NC1CCCCC1	nt	-10.1%	0.5%	nt
71	CCC(C(=O)OCC(=O)Nc1ccccc1-c1ccccc1)c1ccccc1 (stereo not given)	-3.5%	28.9%	?	-17.1
72	COc1cc(OC)cc(C(=O)OCC(=O)c2cc(C)n(CC3CCCO3)c2C)c1 (stereo not given)	nt	0.1%	0.7%	nt
73	COC(CNC(=O)c1ccc(-n2c(=S)[nH]c3ccccc3c2=O)cc1)OC	1.1%	0.0%	-2.6%	5.4
74	O=C(CSc1nc(C(F)(F)F)cc(=O)[nH]1)N1CCOCC1	nt	6.8%	-2.7%	nt
75	C/C(CC(=O)Nc1ccc(Cl)cc1)=N\NC(=O)C(=O)NCCO	-7.1%	-0.1%	-0.1%	4.2
76	CCOc1ccc(S(=O)(=O)N(CC(=O)NCC(F)(F)F)Cc2ccco2)cc1	3.6%	-5.8%	-0.4%	-6.6
77	COC(OC)c1ccc(C#N)c(=O)[nH]1	-0.4%	0.6%	2.8%	9.7
78	C/C(O)=C(\N=Nc1cc(C)ccc1O)C(N)=O	-21.6%	-12.9%	2.4%	-7.0
79	CCN1CCc2c(sc(NC(=O)CN3C(=O)c4ccccc4C3=O)c2C(N)=O)C1	0.1%	?	?	-3.4

Of the compounds above, these have a nitro group on carbon.
No.	structure	miR-21 reporter	Rango dissoc inh	Rango-impB inh	GLA inh pH 4.5
1	O=[N+]([O-])c1ccc(S(=O)(=O)Nc2ccc(S(=O)(=O)N3CCCC3)cc2)cc1	-0.3%	?	-2.0%	nt
65	C/C(CC(=O)Nc1ccc(N(C)C)cc1)=N\NC(=O)c1ccc([N+](=O)[O-])cc1	1.1%	1.7%	-2.4%	nt

High-throughput results (PubChem)
